High-throughput results from PubChem.
Rce1 inhib: yeast Ras-converting enzyme inhibition | AID 2563 | calls only | 0.27% of 290,000 active | yeast membranes, quenched prenylated peptide cleavage fluorescence;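 active means fall in fluorescence gain of 50% or more versus controls, with final raw signal at or below 3038400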;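 further: plate controls were neutral control wells for no effect and wells lacking membranes for full effect; tested at 10 µM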
Target sequence (Q03530 whole entry, looked up): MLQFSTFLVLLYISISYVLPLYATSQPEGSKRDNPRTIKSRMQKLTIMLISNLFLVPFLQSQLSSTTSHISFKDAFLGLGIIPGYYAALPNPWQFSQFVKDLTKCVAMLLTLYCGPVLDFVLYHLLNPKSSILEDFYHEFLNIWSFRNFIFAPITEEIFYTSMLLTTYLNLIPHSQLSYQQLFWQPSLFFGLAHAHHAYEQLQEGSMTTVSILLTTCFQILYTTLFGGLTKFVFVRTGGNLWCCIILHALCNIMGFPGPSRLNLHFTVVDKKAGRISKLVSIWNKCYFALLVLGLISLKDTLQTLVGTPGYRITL
UUG fidelity: alters start codon recognition fidelity in yeast; activity score, % at 18.7 µM; S. cerevisiae UUG-firefly luciferase reporter, luminescence/redox ratio; AID 602363; 0.13% of 350,000 active;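 active means replicate mean at a twofold rise or more, about +100% in these data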;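 further: firefly luciferase made from a UUG start codon reports start codon fidelity; reporter light over untreated wells divided by growth signal over untreated wells; some hits fall short of that in this replicate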
MT1-MMP act inh: blocks activation of human MT1-MMP | GFP/RFP ratio change, % at 20 µM | HT1080 RFP-PRO-GFP cells, GFP/RFP ratio fluorescence, overnight; percent of plate control window, DMSO zero | 0.061% of 360,000 active;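 active means GFP/RFP ratio change of at least 30% with cell ATP level not reduced by more than half and red fluorescence within 50% of control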; further: strong numbers were not always called active
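Compound: 20 µM single dose, 1% DMSO / System: HT1080 RFP-PRO-GFP cells / Controls: DMSO and RFP-L50D-GFP cell wells / Read-out basis: GFP/RFP fluorescence ratio / Schedule: overnight compound exposure at 37 °C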
PABP FP inh: PABP-poly(A) binding inhibition | PABP-poly(A) RNA binding, fluorescence polarization | inhibition, % at 35 µM | 1% of 290,000 active | AID 2014;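 active means 50% or more with normal probe brightness, or confirmed in later tests; about a fifth of its hits are not listed in these tables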;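 further: calls also rest on retests at 20 µM and on dose response follow-up; controls were probe without protein and protein plus probe with vehicle; some compounds called inactive have numbers as strong as hits; many hits fall short of the cut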
CSC inhib: cancer stem cell inhibition | 1.1% of 300,000 active | cancer stem cell-like cells viability, luminescence | inhibition, % at 7.5 µM;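 active means mean at 75% or more and at least half the replicates too; tested in HMLE shEcad cells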;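 further: 0% = median of negative and 100% = median of positive control wells; the first replicate is given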
eIF4H inh: inhibitors of RNA binding by human eIF4H | 0.94% of 290,000 active | eIF4H fluorescence polarization binding assay | inhibition, % at 35 µM;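 active means 50% or more with normal probe brightness, or confirmed in later tests; about a fifth of its hits are not listed in these tables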;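 further: calls also rest on retests at 20 µM and on dose response follow-up; 0% = protein and probe with vehicle and 100% = probe without protein; strong numbers were not always called active; many hits fall short of the cut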
Env fusion inh: blocks HIV Env-driven cell-cell fusion | 1.1% of 360,000 active | HeLa-JRFL Env/CEM21 cell fusion, luciferase | inhibition, % at 12.3 µM;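 active means mean replicate inhibition score of at least 50 and every replicate individually at or above 50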;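 further: 0% = plate neutral controls and 100% = maraviroc near 300 nM; one replicate is shown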
MT1-MMP act inh RFP: further read-out of MT1-MMP act inh, marked with its call; RFP signal change, %; measured here: RFP expression control read;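 0 = vehicle wells; hits needed this value within 50% of zero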
* = called active by the depositor; i = inactive; . = not tested or not shown.

SMILES	Rce1 inhib	UUG fidelity	MT1-MMP act inh	MT1-MMP act inh RFP	PABP FP inh	CSC inhib	eIF4H inh	Env fusion inh
Cc1cc2c(Nc3ccccc3)ncnc2s1	i	-1	0	-5	9	33	-27	1
Cc1c(C(=O)NNS(=O)(=O)c2ccccc2Cl)sc(=S)n1C	i	-16	-3	2	-3	-4	9	1
Cn1c(=O)n(C)c2cc(S(=O)(=O)NCCO)ccc21	i	-18	6	6	0	-11	-2	-24
Cc1ccccc1-n1cnc2c(sc3nc(N4CCOCC4)c4c(c32)CCCC4)c1=O	i	.	-9	-15	-4	28	2	4
CN1CCC(C)(C(=O)Nc2ccc3c(c2)OCCO3)C1 (centres undefined)	.	-9	-3	2	.	.	.	9
CCn1ncc(Br)c1C(=O)Nc1ccc(C(C)C)cc1	i	14	9	7	-1	.	-3	-29
COc1cccc2cc(C(=O)N3C(C)CCCC3C)c(=O)oc12 (centres undefined)	i	-5	6	6	18	.	6	.
Cc1cc2c(cc1C)N(C(=O)CSC1=NCCS1)C(C)(C)c1ssc(=S)c1-2	i	.	-3	-15	7	.	-5	42
CC(=O)N(c1ccc(Cl)cc1)c1cn(C(C)=O)c2ccccc12	i	5	5	-5	-6	11	-8	19
Cc1cc(C2=NNC(=Nc3ccccc3)SC2)c(C)n1C	.	.	-1	1	35	-13	7	-27
CCOC(=O)C(CC(=O)O)NCc1ccco1 (centres undefined)	i	.	1	2	3	9	-1	-7
COc1ccc(NC(=O)CSCc2ccc(C#N)cc2)c(OC)c1	i	5	-1	3	2	-9	-5	-6

Already shown: an excerpt of the list.
SMILES	Rce1 inhib	UUG fidelity	MT1-MMP act inh	MT1-MMP act inh RFP	PABP FP inh	CSC inhib	eIF4H inh	Env fusion inh
CC(=O)N(c1ccc(Cl)cc1)c1cn(C(C)=O)c2ccccc12	i	5	5	-5	-6	11	-8	19
Cc1cc(C2=NNC(=Nc3ccccc3)SC2)c(C)n1C	.	.	-1	1	35	-13	7	-27
CCOC(=O)C(CC(=O)O)NCc1ccco1 (centres undefined)	i	.	1	2	3	9	-1	-7
COc1ccc(NC(=O)CSCc2ccc(C#N)cc2)c(OC)c1	i	5	-1	3	2	-9	-5	-6

(more compounds)
SMILES	Rce1 inhib	UUG fidelity	MT1-MMP act inh	MT1-MMP act inh RFP	PABP FP inh	CSC inhib	eIF4H inh	Env fusion inh
CCCn1c(=S)[nH]c2cc(C(=O)N3CCCC(C(=O)OCC)C3)ccc2c1=O (centres undefined)	i	-8	3	-13	5	.	5	84*
Cn1nc(C(=O)NC2CCCCC2)c2c1-c1ccccc1S(=O)(=O)C2	i	-5	9	4	7	1	-5	-14
CCCCn1nc(NC(=O)c2cccs2)c2cc3ccccc3nc21	i	-1	-9	-10	-4	17	-8	-71
N=c1c2cn[nH]c2nc(SCC(=O)c2ccc(Br)cc2)n1-c1ccc(Br)cc1	.	-11	-1	-1	-2	-11	-10	11
Cc1nn(C)c(C)c1/C=C(\C#N)C(N)=O	i	.	0	2	-9	7	-8	12
COC(=O)c1ccccc1NC(=O)C1CCN(c2ncnc3c2nc2n3CCCCC2)CC1	i	12	0	-2	-5	.	-6	21
CSC(=Nc1ccccc1)C1=C(O)COC1=O	i	-10	-1	2	-5	2	10	.
O=C1CCCc2c1nc(-c1ccc([N+](=O)[O-])cc1)n2O	.	.	0	1	-1	-6	12	0
C=CCn1c(COc2ccccc2)nc2ccccc21	i	-13	-2	-6	-3	1	-3	-73
Clc1ccccc1-c1nnc2sc(-c3ccccn3)nn12	i	7	-3	-6	-11	.	-4	-162
COc1cc2c(cc1OC)-c1cc(OCc3ccccc3Cl)nc(=O)n1CC2	i	-12	-3	-5	-14	-7	-12	-3
O=C(COC(=O)c1ccc(O)cc1)NCCc1c[nH]c2ccccc12	.	-5	-6	-4	.	4	.	-2

Three structures from above, arranged by number of heavy atoms, lowest first:
SMILES	Rce1 inhib	UUG fidelity	MT1-MMP act inh	MT1-MMP act inh RFP	PABP FP inh	CSC inhib	eIF4H inh	Env fusion inh
Cc1nn(C)c(C)c1/C=C(\C#N)C(N)=O	i	.	0	2	-9	7	-8	12
CSC(=Nc1ccccc1)C1=C(O)COC1=O	i	-10	-1	2	-5	2	10	.
CCCn1c(=S)[nH]c2cc(C(=O)N3CCCC(C(=O)OCC)C3)ccc2c1=O (centres undefined)	i	-8	3	-13	5	.	5	84*

(listing goes on)
SMILES	Rce1 inhib	UUG fidelity	MT1-MMP act inh	MT1-MMP act inh RFP	PABP FP inh	CSC inhib	eIF4H inh	Env fusion inh
COc1ccc(OCc2nnc(SCC(=O)c3ccccc3)o2)cc1	i	-10	4	0	6	-5	-5	-15
Cc1ccsc1-c1cc2nc(NCCCN(C)C)n(C)c(=O)c2s1	.	-15	3	2	.	.	.	-14
CC(C)(C)NC(=O)c1cccc(NC(=O)Cc2ccc(Br)cc2)c1	i	-4	1	-6	-1	-15	-8	20
CCCOC(=O)c1cccc(NC(=O)COc2ccc([N+](=O)[O-])cc2)c1	i	.	1	-16	-1	50	-4	24
Cc1ccc2nc(C3CCN(C(=O)c4ccco4)CC3)[nH]c2c1	i	-7	0	1	20	-7	4	-47
CCS(=O)(=O)N1CCN=C1SC(C)c1ccccc1 (centres undefined)	i	0	1	4	0	-8	2	5
Cc1ccc(CN2CC(N3CCC(c4ccccc4)CC3)CS2(=O)=O)cc1 (centres undefined)	.	13	2	-1	.	.	.	-45
Cc1ccc(C(=O)N/N=C2\CC3CC=CC23)c(C)c1 (centres undefined)	i	.	1	5	-1	-4	-6	21
COCCN1C(=O)N(c2cccc(OC)c2)C(=O)C1CC(=O)Nc1cccc(F)c1 (centres undefined)	i	-4	-4	-1	-6	.	-4	-4
O=C(Nc1cccc(Cl)c1)C1C2C=CC3(O2)C1C(=O)N(CCN1CCCCC1)C3C(=O)NC1CCCCC1 (centres undefined)	.	-10	2	2	-8	-8	-8	5
Cc1cc(N)c2ccccc2n1	i	.	4	0	8	-1	7	14
O=C(CSc1nc2ccccc2c(=O)n1-c1ccc(F)cc1)Nc1ccc2c(c1)CCC2	i	.	-1	-2	-10	-3	-4	-10

Only UUG fidelity and Rce1 inhib, for some of the entries so far:
| Structure | UUG fidelity | Rce1 inhib |
| --- | --- | --- |
| CCS(=O)(=O)N1CCN=C1SC(C)c1ccccc1 (centres undefined) | 0 | i |
| Cc1ccc(CN2CC(N3CCC(c4ccccc4)CC3)CS2(=O)=O)cc1 (centres undefined) | 13 | . |
| Cc1ccc(C(=O)N/N=C2\CC3CC=CC23)c(C)c1 (centres undefined) | . | i |
| COCCN1C(=O)N(c2cccc(OC)c2)C(=O)C1CC(=O)Nc1cccc(F)c1 (centres undefined) | -4 | i |
| O=C(Nc1cccc(Cl)c1)C1C2C=CC3(O2)C1C(=O)N(CCN1CCCCC1)C3C(=O)NC1CCCCC1 (centres undefined) | -10 | . |
| Cc1cc(N)c2ccccc2n1 | . | i |

The list goes on:
SMILES	Rce1 inhib	UUG fidelity	MT1-MMP act inh	MT1-MMP act inh RFP	PABP FP inh	CSC inhib	eIF4H inh	Env fusion inh
CC1Sc2ccc(C(=O)O)cc2NC1=O (centres undefined)	i	-18	-1	0	9	2	4	-68
CCCn1c(=S)[nH]c2sc3c(c2c1=O)CCCC3	i	-15	0	-1	7	43	4	-67
Cc1ccc(NC(=O)CC2Oc3ccc(C)cc3NC2=O)c(C)c1 (centres undefined)	i	0	-4	-6	-5	-1	-5	-9
O=C(Oc1ccc(/C=N/Nc2ccccc2)cc1)c1ccccc1	i	-23	-5	1	4	21	-1	-2
Cc1ccc(/C=C/C(=O)OCC(=O)NC(C)C)o1	i	.	-2	1	0	-7	-5	10
CC(=O)Nn1cc2c(c1-c1ccccc1)c(=O)n(C)c(=O)n2C	i	-1	6	9	-9	-6	-2	6
CC(=O)c1ccc(N2CCN(C(=O)/C=C/c3ccc(S(=O)(=O)NCc4ccco4)cc3)CC2)cc1	i	.	-10	-24	27	5	-4	26
Oc1ccc(C[C@H]2CN([C@@H](Cc3ccc(O)cc3)CN3CCC[C@@H]3CN3C(=S)NC[C@@H]3Cc3ccccc3)C(=S)N2CC2CCCCCC2)cc1	.	-19	-4	-12	.	.	.	17
Cc1nn(Cc2ccc(Cl)c(Cl)c2)c(C)c1NC(=O)c1cc(-c2ccc3c(c2)OCO3)on1	i	-14	-12	-20	-14	81*	0	73*
Cc1ccc(S(=O)(=O)CNC(=S)c2cccc(Cl)c2)cc1	i	-21	1	7	4	1	7	3
O=C(O)CC(NC(=O)c1cccc(F)c1)c1ccc(OC2CCCC2)cc1 (centres undefined)	i	-18	0	1	-5	3	1	8
COC(=O)c1c(C)[nH]c(C(=O)C(C)OC(=O)C2CC(=O)N(c3ccc(C)cc3)C2)c1C (centres undefined)	.	16	-1	-15	.	3	.	23
Cc1cccc(N2CCN(Cc3c(C)n(C)n(-c4ccccc4)c3=O)CC2)c1C	i	-15	9	3	-1	-3	6	-8
c1ccc(CCn2c(SCc3ccccc3)nnc2-c2ccncc2)cc1	i	-14	3	-7	-3	-6	3	14
COc1ccc(Cl)cc1-c1noc([C@@H]2O[C@H](CO)[C@H](O)[C@H](O)[C@H]2O)n1	.	-23	-2	5	.	.	.	1
CCN1CCN(c2ccc(NC(=O)c3cccc4ncccc34)cc2)CC1	i	-11	0	3	4	1	0	-73
CCN(CC)S(=O)(=O)c1ccc(NC(=O)c2cc(=O)[nH]c3ccccc23)cc1	.	.	3	5	1	6	13	-5
COc1cccc(NC(=S)N2CCN(C(c3ccccc3)c3ccccc3)CC2)c1	i	-19	-6	-10	-6	21	-6	3
O=C(NCCOc1ccc(F)cc1)C1CCC(=O)N(CCN2CCOCC2)C1 (centres undefined)	i	-14	2	1	2	-11	-10	-25
CCOC(=O)N1CCN(c2cc(=O)n(Cc3ccc(F)cc3)c(=O)[nH]2)CC1	i	-15	0	3	-17	-13	-6	-2
Cn1c(NC(=O)C(C)(C)Oc2ccc(Cl)cc2)cc(=O)n(C)c1=O	i	-1	0	-4	0	-3	-1	7
CSc1ccccc1NC(=O)Nc1cccc(Cl)c1Cl	i	-2	-10	3	-10	-9	-7	-82
Cc1cc(=O)oc2cc(OCC(=O)N3CCOCC3)ccc12	i	5	-1	5	3	.	15	.
CCOCC(=O)Nc1nc2ccc(OCC)cc2s1	.	-23	5	-3	4	2	-2	-246
N#CC1(Cc2ccccc2)c2ccccc2C=CN1C(=O)c1ccccc1 (centres undefined)	i	-5	-5	-6	10	67	-3	.
Cc1ccc(/C=[N+](\[O-])c2ccc(N(C)C)cc2)c2nsnc12	i	.	4	11	-2	.	-2	-155
O=C(CNC(=O)c1cc(=O)[nH]c2ccccc12)Nc1ccc(F)c(F)c1	i	.	3	5	-17	-13	-1	1
Cc1ccc2[nH]c(O)c(N=NC(N)=S)c2c1	i	-8	-2	-2	4	-10	-11	-17
COc1cccc2c1cc1c(=O)n(CC(=O)N3CCC(C)CC3)nc(C)n12	i	-8	2	2	3	-23	-14	-2
O=C1CC(N2CCCCC2)C(=O)N1c1ccccc1 (centres undefined)	i	-13	-2	6	6	1	1	.
O=C(O)c1cc2c(cc1Cl)N1CCCCCC1=NS2(=O)=O	i	.	2	5	5	-12	-1	9

4 entries from above in a different format.
| Structure | Rce1 inhib | UUG fidelity | MT1-MMP act inh | MT1-MMP act inh RFP | PABP FP inh | CSC inhib | eIF4H inh | Env fusion inh |
| --- | --- | --- | --- | --- | --- | --- | --- | --- |
| O=C(CNC(=O)c1cc(=O)[nH]c2ccccc12)Nc1ccc(F)c(F)c1 | i | . | 3 | 5 | -17 | -13 | -1 | 1 |
| Cc1ccc2[nH]c(O)c(N=NC(N)=S)c2c1 | i | -8 | -2 | -2 | 4 | -10 | -11 | -17 |
| COc1cccc2c1cc1c(=O)n(CC(=O)N3CCC(C)CC3)nc(C)n12 | i | -8 | 2 | 2 | 3 | -23 | -14 | -2 |
| O=C1CC(N2CCCCC2)C(=O)N1c1ccccc1 (centres undefined) | i | -13 | -2 | 6 | 6 | 1 | 1 | . |

Some of the compounds tested (hit frequency here may not be typical).
